Bioassay records as filed in PubChem BioAssay.
Bst PK mod – modulators of Bacillus stearothermophilus pyruvate kinase; 1.2% of 51,000 active; AID 361; Potency, µM; partly purified Bacillus stearothermophilus pyruvate kinase, luminescence ATP production; ribose 5-phosphate activator present at AC10; in the data active means potency below about 11 µM; inconclusive means mostly about 12 µM to 25 µM; inactive means weaker than that;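 the screen sought inhibitors and activators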;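 also: potency is read from the fitted curve at half-maximal effect; scaled between full activation by ribose 5 phosphate and full inhibition by luteolin; about four in five hits inhibit and the cells do not say which; series up to 57 µM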
YjeE inh – displaces an ADP probe from E. coli YjeE (TsaE) | P0AF67 | purified YjeE, fluorescence polarisation of a bound ADP probe | Potency, µM | 0.05% of 71,000 active; active = well fitted falling curve; inconclusive = weaker or top-dose-only fall, or a rising curve; inactive = flat or poorly fitted curve;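 also: top concentration of the series not given in the record; excess ADP was the control for the full effect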
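Fluorescence polarization of a BODIPY Texas Red–ADP probe (2 uM) bound to purified YjeE (10 uM) was read after 15 min room-temperature incubation with compounds. Loss of polarization marks inhibitors; ADP serves as titrated control.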
* marks the source's active call; other numbers are inactive results; i = inactive; ? = inconclusive; / = no result given. This is a subset; count on the stated rates, not on these rows.

SMILES	Bst PK mod	YjeE inh
Cc1cccc(COc2ccc(/C(O)=C3\C(=O)C(=O)N(CCN(C)C)C3c3ccncc3)cc2)c1 (configuration not stated)	>25.6	/
O=C(NCc1ccco1)C(c1ccncc1)N(CCC1=CCCCC1)C(=O)Cn1nnc2ccccc21 (configuration not stated)	>57	i
CCOC(=O)c1cc(-c2nnc(-c3ccc(Oc4ccccc4)cc3)o2)c(C)nc1C	/	i
O=C(CN1CCOc2ccccc21)NCc1ccc(F)cc1	/	i
Cc1ccc(NC(=O)CN(C)C(=O)CCCN2C(=O)c3ccccc3C2=O)cc1	>57	i
CCOC(=O)NC(Nc1nc2ccccc2s1)(C(=O)OCC)C(F)(F)F (configuration not stated)	>57	i
Cc1cccc(C)c1NC(=O)C(NC=O)c1ccc(N(C)C)cc1 (configuration not stated)	>57	i
O=C(NCCc1cn2ccsc2n1)C1CCCCC1	/	i
O=C1[C@@H]2Cc3ccccc3CN2C(=O)N1c1cccc(F)c1	>57	i
COc1ccc(C2C(C(=O)Nc3cccnc3)=C(C)Nc3nc(-c4cccs4)nn32)cc1OC (configuration not stated)	/	i
CCNc1ncc2nc(-c3ccc(F)cc3)c(=O)n(Cc3ccc(F)cc3)c2n1	/	i
Cc1cc(C(F)F)n2nc(C(=O)Nc3ccc(S(=O)(=O)N4CCCC4)cc3)nc2n1	>57	i
CCOC(=O)c1nn(-c2ccccc2)c(=O)c2c(N)scc12	/	i
CSc1cccc(NC(=O)Cn2cccc2)c1	>57	i
O=C(c1ccco1)N1CCN(c2c(-c3ccccc3)c3cc(Cl)ccc3[nH]c2=O)CC1	>57	i
Cc1ccc(-c2cnc(NC(=O)CCC(=O)N3CCCCC3)n2C)cc1	>57	i
Cc1ccc(C(=O)Nc2ccccc2N2CCN(C(=O)C(C)C)CC2)cc1C	>57	i
C#CCN(C)CCCOc1ccc(Cl)cc1Cl	/	i
CCOC(=O)[C@@H](O)Cc1cnc2ccccc2n1	/	i
COc1ccc(/C(O)=C2/C(=O)C(=O)N(CCCC(=O)O)C2c2ccc(OC)c(OC)c2)cc1 (configuration not stated)	>57	i
Cc1noc(C)c1CSc1nc2ccccc2n1C	>57	i
O=C(Oc1nsnc1N1CCCCC1)N1CCOCC1	>57	i
Cc1cccc(Nc2nc(N)nc(CN3CCN(Cc4ccc5c(c4)OCO5)CC3)n2)c1	>57	i
CC(NC(=O)c1cc2c(=O)n(C)c3ccccc3c2n1C)c1ccc2c(c1)OCCO2 (configuration not stated)	/	i
COCCOC(=O)C1=C(C)OC(N)=C(C#N)C1c1ccco1 (configuration not stated)	>25.6	/

Rewritten bar-delimited: 5 of the compounds above
SMILES | Bst PK mod | YjeE inh
Cc1noc(C)c1CSc1nc2ccccc2n1C | >57 | i
O=C(Oc1nsnc1N1CCCCC1)N1CCOCC1 | >57 | i
Cc1cccc(Nc2nc(N)nc(CN3CCN(Cc4ccc5c(c4)OCO5)CC3)n2)c1 | >57 | i
CC(NC(=O)c1cc2c(=O)n(C)c3ccccc3c2n1C)c1ccc2c(c1)OCCO2 (configuration not stated) | / | i
COCCOC(=O)C1=C(C)OC(N)=C(C#N)C1c1ccco1 (configuration not stated) | >25.6 | /

The main list resumes; the 5 compounds before the break are reprinted first.
SMILES	Bst PK mod	YjeE inh
Cc1noc(C)c1CSc1nc2ccccc2n1C	>57	i
O=C(Oc1nsnc1N1CCCCC1)N1CCOCC1	>57	i
Cc1cccc(Nc2nc(N)nc(CN3CCN(Cc4ccc5c(c4)OCO5)CC3)n2)c1	>57	i
CC(NC(=O)c1cc2c(=O)n(C)c3ccccc3c2n1C)c1ccc2c(c1)OCCO2 (configuration not stated)	/	i
COCCOC(=O)C1=C(C)OC(N)=C(C#N)C1c1ccco1 (configuration not stated)	>25.6	/
CCCn1c(NCc2cccc(OC)c2O)nc2ccccc21	>57	i
Cc1c(NC(=O)c2cnn3c2NC(c2ccco2)CC3C(F)(F)F)c(=O)n(-c2ccccc2)n1C (configuration not stated)	/	i
CC1(C)CC(=O)C2=C(C1)Nc1ccccc1NC2c1cccnc1 (configuration not stated)	/	i
O=C(OC1CCCCC1)c1ccc2c(c1)C1C=CCC1C(C(=O)O)N2 (configuration not stated)	>57	i
CC(C)C1N(c2ccccc2)C(N)=C(C#N)C1(C#N)C#N (configuration not stated)	>57	i
COc1ccc(C2CC(c3cc(Br)ccc3F)n3nnnc3N2)cc1 (configuration not stated)	?	i
CCOC(=O)N1CCN(C(=O)c2oc3ccc(S(=O)(=O)N4CCCCC4)cc3c2C)CC1	>57	i
CCC1(CC)NC(=O)N(CC(=O)OCC(=O)Nc2cc(C)ccc2C)C1=O	>57	i
COc1ccc(NC(=O)c2cc(C3CC3)on2)c(OC)c1	/	i
c1coc(CNc2nc3sc4c(c3c3ncnn23)CCCC4)c1	>57	i
COC(=O)c1ccc(C)c(NC(=O)c2c(-c3ccccc3)noc2C)c1	>57	i
C/C(C=O)=C/c1ccccc1	/	i
O=C(Cc1cccs1)N1CCN(C(=O)C2CCCO2)CC1 (configuration not stated)	>57	i
CC(=O)N1CSCC1C(=O)O (configuration not stated)	>57	i
Cc1ccc2c(c1)NCC(C(=O)NC1CCCCC1)O2 (configuration not stated)	>57	i
OC(COCC1CC=CCC1)Cn1cnc2ccccc21 (configuration not stated)	>57	i
COc1cccc(Cn2nnc(C(=O)NCc3ccccc3Cl)c2N)c1	/	i
CCS(=O)(=O)NCc1csc(-c2ccccc2)n1	/	i
CC(=O)c1cccc(NC(=O)c2ccc(N(C)S(C)(=O)=O)cc2)c1	>57	i
COC(=O)CN1C(=O)CC(C)(C)S(=O)c2ccccc21 (configuration not stated)	/	i
Cc1ccccc1-n1c(SCc2cc(=O)n3ccccc3n2)nc2[nH]ncc2c1=O	>57	i
CCOCCOCC	/	i
COc1cccc(NC(=O)Cc2nnc(SCCOc3ccccc3)n2C)c1	>57	i
CC1(C)SCC2C(=O)N3C(CSC3(C)C)C(=O)N21 (configuration not stated)	/	i
Cc1ccc(CSc2nnc(-c3cccs3)n2C)cc1	>57	i

Additional structures:
SMILES	Bst PK mod	YjeE inh
c1ccc(-n2nnnc2OCCOc2nnnn2-c2ccccc2)cc1	>57	i
CCN(CC(=O)N1CCOCC1)S(=O)(=O)c1ccc(C)cc1	>57	i
COc1ccc(-c2cc(-c3c(O)c(OC)c4occc4c3OC)[nH]n2)cc1OC	i	i
CCC(=O)c1ccc(O)cc1	>25.6	/
CSc1ccc(Cn2nnc(C(=O)NCc3ccccc3)c2N)cc1	/	i
CCC(C)c1c(O)nc(SCC(=O)c2ccccc2)[nH]c1=O (configuration not stated)	/	i
Cc1ccc(SCC(=O)N2CC(C)OC(C)C2)cc1 (configuration not stated)	>57	i
CCN(CC)C(=O)C1CCCN(Cc2cccc(F)c2)C1 (configuration not stated)	/	i
Cn1cc(CNC(=O)C2c3ccccc3Oc3ccccc32)cn1	>57	i
COc1ccc(CN2CCN(c3cc(C)nc4c5c(C)cc(C)nc5nn34)CC2)cc1F	>57	i
CCSc1nnc(NC(=O)NC(CC)(C(F)(F)F)C(F)(F)F)s1	>25.6	/
Cc1cccc(-n2c(O)c(C=Nc3ccc4c(c3)OCO4)c3ccccc3c2=O)n1	>57	i
O=S(=O)(N1CCOCC1)n1nnc2ccccc21	>57	i
O=C(NC1CCCCC1)c1ccc(CNc2ccccc2)o1	>57	i
CCc1cccc(NC(=O)c2snc3c(=O)[nH]cnc23)c1	>57	i
COc1cccc(NC(=O)CNC(=O)c2ccccc2)c1	>57	i
CCOc1ccccc1NC(=O)CC1Nc2cc(C)c(C)cc2NC1=O (configuration not stated)	/	i
CCCc1nnc(NC(=O)CN2CCOCC2)s1	>57	i
CC(=O)Nc1cccc(NC(=O)c2c(-c3ccccc3)noc2C)c1	>57	i
O=C(Oc1ccccc1)c1c(Cl)cccc1P(=O)(O)O	i	/
Cc1cccc(-n2nc3c(c2NC(=O)c2ccc(Br)o2)CSC3)c1	>57	i
Cc1ccccc1C(OCCN(C)C)c1ccccc1 (configuration not stated)	>25.6	/
O=c1c2nnn(Cc3ccc(Cl)cc3)c2ncn1Cc1ccc(F)cc1	>57	i
CCN[C@@H]1CN(CCCOC)S(=O)(=O)c2sc(S(N)(=O)=O)cc21	/	i
Cn1c(=O)oc2cc(S(=O)(=O)N3CCN(c4ccccc4)CC3)ccc21	>57	i

Next compounds
SMILES	Bst PK mod	YjeE inh
Cn1c(SCC(=O)NCc2ccccc2)nnc1C1CC1	>57	i
CC1=C(C(=O)OCc2ccccc2)C(c2ccco2)n2ncnc2N1 (configuration not stated)	/	i
CCOc1ccc(C2C(C#N)=C(N)N3C(=C2C#N)Sc2ccccc23)cc1 (configuration not stated)	/	i
CS(=O)(=O)N(CCc1ccccc1)CC(=O)Nc1ccc2c(c1)OCO2	>57	i
O=C(c1cccc(COCC(F)(F)C(F)F)c1)N1CCN(c2ccccc2)CC1	>57	i
O=C(O)CC1(Cc2nc(-c3cccs3)no2)CCCC1	/	i
O=C(CCCn1c(SCC(=O)c2ccc(F)cc2)nc2ccccc2c1=O)NCc1ccco1	>57	i
COc1ccc(N2C(=O)CCC(C(=O)NCCN3CCOCC3)C2c2ccc(OC)c(OC)c2)cc1 (configuration not stated)	>57	i
O=C(NCCCN1CCCCCC1)C1CC(=O)N(C2CCCC2)C1 (configuration not stated)	>57	i
COc1ccc(Nc2cc(C(=O)NCCCN3CCN(C)CC3)c3ccccc3n2)c(OC)c1	/	i
O=C(Cn1cnc2c(nnn2Cc2ccccc2)c1=O)c1ccc(Cl)cc1	/	i
CN(N=O)C(=O)N[C@H]1[C@@H](O)[C@H](O)[C@H](CO)O[C@@H]1O	/	i
CCCc1cc(=O)n2[nH]c(NCc3c(Cl)cccc3Cl)nc2n1	?	i
Cc1ccccc1Nc1nc(N)nc(CN2CCN(c3ccccn3)CC2)n1	>57	i
Cc1ccc(C(=O)Nc2ccc(N3CCOCC3)cc2)cc1	/	i
Cc1ccc(-c2nnn(CC(=O)NCc3ccccc3)n2)c(-n2cnnn2)c1	>57	i
COc1ccc(CC(=O)NCc2ccccc2)cc1S(=O)(=O)N1CCOCC1	>57	i
CCCc1ncc(C(O)c2cccc3ccccc23)n1C (configuration not stated)	>11.4	i
O=c1cc(-c2ccccc2)nc2nc(-c3ccccc3)[nH]n12	>57	i
CC(C)Cc1n[nH]c(=O)[nH]1	>57	i
CCn1c(CNc2ccc(F)cc2)nnc1SCC(=O)Nc1ccc(OC)cc1OC	>57	i
O=C(CSc1nnc(CCCO)n1-c1ccccc1)Nc1nccs1	>57	i
Cc1cccc(OCC(=O)Nc2ccc(N3CCN(S(C)(=O)=O)CC3)cc2)c1C	>57	i
COc1ccccc1Cn1c(=O)c2ccccc2n2c(SCc3csc(C)n3)nnc12	>57	i
O=C(CNC(=O)C1CCCCC1)NC1=NCCS1	/	i

Record cards, as listed above.
`COc1ccc(N2C(=O)CCC(C(=O)NCCN3CCOCC3)C2c2ccc(OC)c(OC)c2)cc1` (configuration not stated) reads Bst PK mod = >57; YjeE inh = i
`O=C(Cn1cnc2c(nnn2Cc2ccccc2)c1=O)c1ccc(Cl)cc1` reads Bst PK mod = /; YjeE inh = i

Carrying on.
SMILES	Bst PK mod	YjeE inh
CCC(=O)Nc1ccc(-c2nc(-c3ccccc3)n(CC(=O)N3CCCCC3)n2)cc1	>57	i
Cc1cc(-c2nnco2)c(C)n1-c1ccccc1	/	i
CCCCn1c(SCC(=O)Nc2cccc(OC)c2)nc2ccc(N3CCOCC3)cc2c1=O	>57	i
Cn1cc(-c2nc3ccccc3[nH]2)c2ccccc21	?	i
O=C(O)CC[C@@H](C(=O)O)N1C(=O)[C@@H]2[C@@H]3CC[C@H](C3)[C@@H]2C1=O	/	i
Cc1cc2cc(CNC(=O)c3ccc4c(c3)OCO4)ccc2n1C	>57	i
COc1ccccc1NC(=O)Nc1ccc(Br)cn1	>57	i
CCC(CC)C(=O)Nc1nnc(SCC(=O)N2CCN(c3ccccc3OC)CC2)s1	>57	i
O=C(CCCSc1nc(-c2ccco2)cc(C(F)(F)F)n1)NCc1cccs1	>57	i
Cc1cc(Cl)ccc1OCC(=O)N1C(C)CCCC1C (configuration not stated)	>57	i
N#CC1=C(SCC(=O)NC23CC4CC(CC(C4)C2)C3)NC(=O)C(C#N)C12CCCCC2 (configuration not stated)	>57	i
COc1ccc(CN2CCN(C(=O)c3cccs3)CC2)c(OC)c1OC	/	i
CC(C)(C)NC(=O)Cn1ccc(=N)c2ccccc21	>57	i
O=C(C1CCN(C2CC(=O)N(c3ccc(Cl)cc3)C2=O)CC1)N1CCOCC1 (configuration not stated)	>57	i
CCn1c(C(C)NC(=O)c2cccc(C)c2)nc2ccccc21 (configuration not stated)	/	i
Cc1cc(N2CCC3(CC2)OCCO3)n2nc(C)c(-c3ccc(Cl)cc3)c2n1	>57	i
CN(Cc1ccco1)C(=O)c1ccc(N2CCCC2=O)cc1	>57	i
OCc1ccnc2c(O)cccc12	>57	i
O=C1NC2c3ccccc3C(=O)N2c2c1cnn2-c1ccccc1 (configuration not stated)	>25.6	/
COCc1cc(C)nc(SCC(=O)Nc2ccc(C)c(C)c2)c1C#N	>25.6	/
CCOC(=O)C(CC)n1cnc2c(nnn2-c2ccc(C)cc2)c1=O (configuration not stated)	>57	i
CCOC(=O)N1CCN(CC(=O)Nc2ccc(OC)cc2)CC1	>57	i
CN(C(=O)c1ccncc1)c1ccccc1	/	i
Cc1ccc(NC(=O)c2oc3ccc(S(=O)(=O)N4CCOCC4)cc3c2C)cc1C	>57	i
Cc1cccc(-n2c(CCCN3C(=O)c4ccccc4C3=O)nc3ccccc3c2=O)n1	>57	i
Cc1nc2ccccc2nc1N1CCC(C)CC1	/	i
Cc1ccc(S(=O)(=O)N2CCCC2C(=O)Nc2nc3c(s2)CCCC3)cc1 (configuration not stated)	?	i
